# RecA splice inh = Mtb RecA intein splicing inhibitors, primary screen, biochemical, fluorescence, HTS. Protein RecA (Mycobacterium tuberculosis (strain ATCC 25618 / H37Rv)), P9WHJ3. AID 2221, 2009. inhibition, %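 (about 9 µM by stock and volumes)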. 290,000 tested, 0.75% active. cell-free RecA intein splicing; in the data active = inhibition above about 30%; inconclusive = no clear call, values can overlap the other calls;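 also: 0% = vehicle wells and 100% = reference inhibitor control wells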
# Target sequence (P9WHJ3 whole entry, looked up, canonical isoform): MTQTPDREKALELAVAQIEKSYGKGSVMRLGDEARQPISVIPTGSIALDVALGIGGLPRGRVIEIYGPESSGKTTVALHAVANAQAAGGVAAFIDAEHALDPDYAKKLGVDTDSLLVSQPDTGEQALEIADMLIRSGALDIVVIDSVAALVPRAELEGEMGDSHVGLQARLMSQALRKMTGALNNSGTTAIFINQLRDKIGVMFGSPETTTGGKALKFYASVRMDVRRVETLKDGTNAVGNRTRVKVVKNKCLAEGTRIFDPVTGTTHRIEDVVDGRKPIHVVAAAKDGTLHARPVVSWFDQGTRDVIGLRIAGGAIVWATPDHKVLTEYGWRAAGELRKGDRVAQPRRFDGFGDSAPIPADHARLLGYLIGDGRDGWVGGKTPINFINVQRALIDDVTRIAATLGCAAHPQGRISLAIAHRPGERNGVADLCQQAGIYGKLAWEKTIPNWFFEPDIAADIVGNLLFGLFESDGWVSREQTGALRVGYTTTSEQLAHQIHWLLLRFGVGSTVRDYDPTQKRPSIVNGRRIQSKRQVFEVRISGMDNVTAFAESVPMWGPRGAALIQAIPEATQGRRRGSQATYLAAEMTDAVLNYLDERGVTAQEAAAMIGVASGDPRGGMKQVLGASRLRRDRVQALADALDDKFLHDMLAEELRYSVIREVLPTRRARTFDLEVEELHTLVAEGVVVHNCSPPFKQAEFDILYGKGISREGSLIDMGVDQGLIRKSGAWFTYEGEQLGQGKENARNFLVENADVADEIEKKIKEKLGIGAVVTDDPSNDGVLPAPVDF
# Arbovirus inh = antivirals against arbovirus infection, primary screen, cell-based, full library, 10K replicate subset; arbovirus infection cell-based antiviral screen; inhibition, % at 10 µM; 200,000 tested, 0.37% active; AID 1251, 2008;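 active = inhibition from about 30%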;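 also: bluetongue infection of BSR cells; cell survival read as ATP light after 72 h; 0% = infected wells without compound and 100% = uninfected wells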
# Mtb H37Rv = M. tuberculosis H37Rv growth inhibitors, H37Rv strain (AID 1626) | inhibition, % at 10 µM; hits with a dose series show IC50 in µM | M. tuberculosis H37Rv growth inhibition; higher % means a stronger effect | 220,000 tested, 0.95% active;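 active = confirmed in a dose series; inconclusive = inhibition above 80% but not taken into the dose series; inactive = below 80% or under 30% at every dose of the series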;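 also: bacteria incubated seven days before Alamar blue readout; 0% = bacteria only wells and 100% = bacteria with antibiotic wells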
# Mtb bLac sens = beta-lactam sensitization of Mtb H37Rv, H37Rv; 330,000 tested, 0.27% active; inhibition, % at 25 µM; M. tuberculosis H37Rv growth with meropenem, percent inhibition; hits of this screen are not shown here;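 active = about 74% or more and at least 40 points above the plate without the antibiotic, then above 30% in a dose series; inconclusive = first-round hits that could not be retested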;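 also: growth measured after seven days incubation then overnight dye step; 0% = bacteria only wells and 100% = bacteria with antibiotic; twin plates without the antibiotic show which effects depend on it; some results filed as inactive read as strong as hits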
# YopH inh = YopH tyrosine phosphatase inhibitors, primary screen, biochemical, fluorescence Ex485/Em525. 140,000 tested, 0.16% active. AID 898, 2007. YopH tyrosine phosphatase [Yersinia enterocolitica]. inhibition, %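 (about 10 µM by stock and volumes)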;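 active = inhibition of 50% or more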;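 also: controls were vehicle for no effect and minimum signal wells for full effect; inactives centre near -20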
# Arbovirus inh repeat = further read-out of Arbovirus inh, marked with its call; inhibition, %; measured here: 10K subset replicate screen; many hits read low in the repeat;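 first of two repeat runs on a subset; 0% = infected and 100% = uninfected wells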
# * hit, by the source's call; ? = inconclusive; . = no result given. Some of the compounds tested. The share of hits here may be higher or lower than overall.
SMILES,RecA splice inh,Arbovirus inh,Mtb H37Rv,Mtb bLac sens,YopH inh,others
O=c1cc(NCc2ccccc2)[nH]c(=O)[nH]1,-6.2,.,.,5.1,.,
COc1ccc(CN(C)CC(=O)Nc2ccccc2C(F)(F)F)cc1,.,-13.4,10.3%,-1.5,.,
CC(C)[C@H](NC(=O)c1ccccc1Cl)C(=O)OCc1cc([N+](=O)[O-])cc2c1OCOC2,1.0,-11.1,4.2%,-8.0,-11.8,
O=C(Nc1ccccc1F)c1ccc(COc2ccc(Cl)cc2Cl)o1,0.7,-12.1,4.8%,5.8,-25.5,
Cc1nc2nc(SCC(=O)NCc3ccco3)nn2c(C)c1Cc1ccccc1,4.4,-18.8,.,5.8,-23.2,
CC(C)CN(C(=O)COC(=O)c1cccnc1Cl)c1c(N)n(Cc2ccccc2)c(=O)[nH]c1=O,-0.8,.,.,-6.5,.,
Cc1csc(=O)n1CCC(=O)OCc1nnc(-c2ccccc2)o1,0.1,.,.,3.4,.,
c1ccc(C(c2c[nH]c3ccccc23)c2c[nH]c3ccccc23)nc1,0.2,-21.1,3.6%,-5.6,4.0,
COc1cccc(NC(=O)C2C3C=CC4(O3)C2C(=O)N(C(C)C)C4C(=O)NC2CCCCC2C)c1 (centres undefined),-0.1,1.1,4.5%,-3.2,-20.3,
CSc1nc(N)c(C(=O)NC2CCCCC2)s1,0.1,.,-4.0%,-10.8,.,
COC(=O)c1ccc(CSCc2ccc(C(=O)OC)o2)o1,-1.0,.,.,7.2,.,
Cc1cc(=O)oc2cc(OC(C)C(=O)NCCCN3CCCC3=O)c(Cl)cc12 (centres undefined),8.0,.,.,-2.1,.,
CN(CCOCCOc1ccc2ccccc2c1)Cc1ccccc1,0.0,-24.6,5.5%,-7.1,8.3,
Cc1csc(=O)n1CCC(=O)OCC(=O)Nc1cc(Cl)ccc1[N+](=O)[O-],0.8,.,.,-1.5,.,
COc1cc(C)c(Cl)cc1S(=O)(=O)NCCN1CCOCC1,1.0,11.3,-5.7%,-4.8,11.7,
Brc1ccc(-n2cccc2/C=N/n2cnnc2)cc1,2.1,14.1,0.5%,-5.9,-30.4,
CCn1nc(C)c(/C=N/NC(=O)Cn2nccc2C)c1C,0.0,1.5,8.0%,-9.8,-25.3,
COc1ccc(Cc2nnc(SCC(=O)c3ccc4c(c3)OCO4)o2)cc1,1.7,.,.,2.3,.,
Cc1cc(C)nc(SCC(=O)Nc2ncccn2)n1,0.1,2.5,-8.4%,-0.6,10.2,
C=CCn1c(=S)[nH]c2nc3c(cc2c1=O)COC(C)(C)C3,-3.8,5.8,-0.5%,?,-78.5,
Cc1ccc(NC(=O)CN2C(=O)S/C(=C\c3cccn3-c3cccc(C(=O)O)c3)C2=O)c(C)c1,-0.6,-10.3,6.5%,43.8,28.7,
CCOc1cccc(C(=O)NC(=S)Nc2cccnc2)c1,0.3,-6.1,-1.1%,-2.4,-22.1,
CCOC(=O)C1=C(C)NC(C)=C(C(=O)OCC)C1C(=O)OCC(=O)N1c2ccccc2CC1C (centres undefined),.,-4.1,-5.3%,-4.8,3.2,
CCOC(=O)C1=C(CS(=O)(=O)c2ccccc2)NC(=O)NC1c1cc(OC)c(O)c(OC)c1 (centres undefined),-4.1,.,.,-0.7,.,
CCOc1ccc(NC(=O)CN(C)C(=O)CC(NC(=O)c2ccccc2)c2ccccc2)cc1OCC (centres undefined),-0.8,.,.,-7.5,.,
C/C(=N\NC(N)=O)c1ccc(-n2ccnc2)cc1,-2.8,0.6,-11.9%,0.5,.,
O=c1[nH]cnc2c1C(c1ccccc1[N+](=O)[O-])c1c(nc[nH]c1=O)O2,-2.7,-4.3,-1.6%,-3.3,-5.8,
CCOC(=O)CC(=O)c1sc2c(c1N)c(=O)[nH]c(=O)n2-c1ccc(OC)cc1,1.0,.,.,4.8,.,
CCOC(=O)CSc1nc(=O)n2ccccc2n1,-4.7,15.3,4.9%,-3.0,.,
COc1ccc(CCNC(=O)CC(c2ccccc2)c2cccc(C)c2O)cc1OC (centres undefined),3.4,9.7,-2.3%,3.7,.,
O=C(CNS(=O)(=O)c1ccc(F)c(Cl)c1)N1CCCCCC1,0.0,-0.7,7.7%,-3.4,12.2,
COCCOC(=O)c1c(C)oc2ccc(OC(=O)N(C)C)cc12,-5.7,1.4,-1.0%,3.0,-17.6,
Cc1[nH]c(C)c(S(=O)(=O)NCCc2ccccc2)c1C(=O)N1CCCCC1,-0.6,.,.,10.7,.,
O=C1CC(c2ccncc2)c2cc3c(cc2N1)OCO3 (centres undefined),-1.0,7.8,-1.4%,8.4,0.5,
Cc1cccc(NC(=S)N(CCCN2CCOCC2)C(C)c2cc3ccccc3o2)c1 (centres undefined),5.8,15.7,4.9%,-11.6,.,
COc1ccccc1OCC(=O)N(Cc1nc(-c2ccccc2)no1)C(C)C,2.7,.,.,2.7,.,
C[C@@H]1CC[C@@]2(O[C@H](CCO)C[C@@H](O)[C@@H]2O)O1,-2.8,6.5,-7.3%,-2.5,-28.8,
CC1CN(C(=O)/C=C/c2ccccc2[N+](=O)[O-])CC(C)O1 (centres undefined),0.0,-4.3,-4.5%,-3.7,.,
COc1ccccc1NC(=O)c1cc(Cl)nc2ccccc12,0.5,.,2.7%,90.4,.,
Cn1nnnc1SCSc1nnnn1C,-1.6,8.3,-1.5%,-7.2,0.1,
Cc1ccc(NC(=O)C2(c3cccs3)CCOCC2)cc1C,0.3,-3.9,-2.7%,-2.3,-14.9,
CN1c2ccccc2-c2nc3ccccc3n2C1c1cccs1 (centres undefined),-67.7,21.3,3.6%,4.1,-25.6,
COCCNC(=O)/C(C#N)=C/c1c(F)cccc1Cl,2.7,-11.7,1.3%,2.5,.,
CN1CCN(C(=O)CCN2C(=O)/C(=C/c3ccc(F)cc3)SC2=S)CC1,9.2,.,.,6.6,.,
CC(=O)Nc1ccc(NC(=O)CC(C)n2ccnc2)cc1 (centres undefined),-0.9,.,.,1.0,.,

# Molecules shown so far containing fluorine (5):
SMILES,RecA splice inh,Arbovirus inh,Mtb H37Rv,Mtb bLac sens,YopH inh,others
COc1ccc(CN(C)CC(=O)Nc2ccccc2C(F)(F)F)cc1,.,-13.4,10.3%,-1.5,.,
O=C(Nc1ccccc1F)c1ccc(COc2ccc(Cl)cc2Cl)o1,0.7,-12.1,4.8%,5.8,-25.5,
O=C(CNS(=O)(=O)c1ccc(F)c(Cl)c1)N1CCCCCC1,0.0,-0.7,7.7%,-3.4,12.2,
COCCNC(=O)/C(C#N)=C/c1c(F)cccc1Cl,2.7,-11.7,1.3%,2.5,.,
CN1CCN(C(=O)CCN2C(=O)/C(=C/c3ccc(F)cc3)SC2=S)CC1,9.2,.,.,6.6,.,

# For reference, some entries already given:
SMILES,RecA splice inh,Arbovirus inh,Mtb H37Rv,Mtb bLac sens,YopH inh,others
O=C(CNS(=O)(=O)c1ccc(F)c(Cl)c1)N1CCCCCC1,0.0,-0.7,7.7%,-3.4,12.2,
COCCOC(=O)c1c(C)oc2ccc(OC(=O)N(C)C)cc12,-5.7,1.4,-1.0%,3.0,-17.6,
Cc1[nH]c(C)c(S(=O)(=O)NCCc2ccccc2)c1C(=O)N1CCCCC1,-0.6,.,.,10.7,.,

# New compounds follow:
SMILES,RecA splice inh,Arbovirus inh,Mtb H37Rv,Mtb bLac sens,YopH inh,others
COc1cccc(NC(=O)CN(C)C(=O)CN2C(=O)c3ccc([N+](=O)[O-])cc3C2=O)c1,-7.9,.,.,-1.8,.,
COc1cc(N/N=C/c2ccccc2O)ncn1,-3.3,-21.7,?,94.5,-21.7,
CC(=O)Nc1cccc(Nc2nc(-c3ccccc3F)nc3ccccc23)c1,1.7,-9.1,-7.9%,3.4,.,
Cc1ccc(NC(NC(=O)c2cccs2)C(Cl)(Cl)Cl)cc1C (centres undefined),10.3,-9.0,24.3µM*,-0.2,1.1,
CCCC(=O)Nc1ccc(C)c(O)c1,-9.4,3.5,0.0%,2.9,-3.2,
CC(=O)c1ccc(OCC(O)CN(C)Cc2cccs2)cc1 (centres undefined),0.9,1.8,-7.4%,-4.2,-46.5,
CCN(CC)C(=O)CSCc1cnn(-c2ccccc2)c1-n1cccc1,2.1,-2.9,-1.4%,-5.1,-13.6,
O=C(c1ccco1)N(Cc1cccc(F)c1)C1CCS(=O)(=O)C1 (centres undefined),1.5,.,.,1.6,.,
Cc1ccc(C)c(Nc2nc3ccc(C)cc3n3cnnc23)c1,4.5,.,.,1.1,.,
Cc1cc(=O)n2[nH]c(C)c(-c3ccccc3)c2n1,-0.8,-3.7,.,-6.8,-24.2,
Cn1cccc1C(=O)OCC(=O)NC(=O)NC1CCCCC1,-1.0,-2.8,8.3%,-1.4,.,
O=C(NCc1ccco1)C1CCN(c2ccc(S(=O)(=O)N3CCOCC3)cc2[N+](=O)[O-])CC1,-0.1,-0.6,0.5%,2.0,.,
N#CCC(=O)Nc1ccc(C(=O)OCC(=O)c2ccc3c(c2)OCCO3)cc1,2.4,14.4,5.8%,-5.0,.,
O=C(Nc1ccc(Cl)cc1)c1ccco1,-6.3,.,.,4.5,.,
Cc1ccc(/C=c2\sc3nc(-c4cccs4)nn3c2=O)o1,-3.5,5.8,-6.5%,-2.0,-12.9,
O=c1cc(Cl)[nH]c(=O)n1CCNc1ncc(C(F)(F)F)cc1Cl,-2.5,12.1,3.0%,-2.3,-57.5,
O=C(c1cnn2c(C(F)(F)F)cc(-c3ccc(Br)cc3)nc12)N1CCOCC1,-5.9,7.9,-9.0%,.,-5.0,
CCOC(=O)c1c(NC(=O)CN2CCC(C)CC2)sc(C)c1C,2.6,3.1,0.6%,13.2,.,
CC(C)c1ccc(NC(=O)CSc2n[nH]c(=O)n2C2CC2)cc1,1.5,.,.,2.3,.,
O=C(CSc1nnnn1-c1ccc(Cl)c(C(=O)O)c1)NC(c1ccccc1)c1ccccc1,-2.1,.,-6.2%,-0.5,.,
COCCCNC(=O)Cn1cc(C(=O)C2CC2)c2ccccc21,1.1,3.2,-9.3%,7.2,-37.6,
CC1(C)CC(=O)C(C=Nc2ccccc2C(=O)O)=C(O)C1,-3.5,-0.3,-14.9%,5.3,-8.7,
CC(=O)NO,-1.4,.,-8.3%,-8.5,.,
CCC(=O)c1ccc(N2CCN(C(=O)c3ccccc3Br)CC2)c(F)c1,-0.6,-20.8,8.6%,-0.3,.,
O=C(CNC(=O)c1ccc(OC(F)F)cc1)NC1CCCc2ccccc21 (centres undefined),1.9,.,.,1.0,.,
CCc1ccc(-c2cc(C(F)(F)F)n3nc(C(=O)Nc4c(C)nn(Cc5ccccc5Cl)c4C)cc3n2)s1,-95.2,-4.4,-4.9%,?,1.3,
Cc1cc(C)c(C)c(S(=O)(=O)N2CCN(CC(=O)NC(=O)NCc3ccccc3)CC2)c1C,-2.3,-3.4,-0.2%,-10.4,-150.2,
COc1ccc(C2C(C(=O)NCc3ccco3)c3ccccc3C(=O)N2C)cc1 (centres undefined),9.7,-8.8,-6.8%,-2.1,.,
N#Cc1ccc2c(c1)NC(=O)C1CCCN21 (centres undefined),-143.1,-6.4,8.1%,-5.5,.,
O=C(N/N=C1\CC(c2ccccc2)Oc2ccccc21)c1ccccn1 (centres undefined),2.7,0.1,-2.0%,-5.7,.,
O=C(C1CCN(S(=O)(=O)c2cccc3cccnc23)CC1)N1CCn2c1nc1ccccc12,0.8,11.7,.,-4.1,-57.0,Arbovirus inh repeat=9.9
Cc1ccc(-c2nc3cnccn3c2Nc2c(C)cccc2C)o1,-51.9,15.0,18.7%,96.5,-45.6,
CN(Cc1nc2c(s1)CCCC2)C(=O)CCc1nnc(-c2ccccc2)o1,6.3,2.4,1.5%,-3.9,.,
Cc1cc(-c2ccc(Cl)s2)n[nH]1,0.5,-0.7,.,-9.6,-17.5,
Nc1nonc1-n1nnc(C(=O)N/N=C\c2ccncc2)c1CN1CCCCC1,-2.0,.,.,0.9,.,
CCc1nc(NC(C)C)c2oc3ccccc3c2n1,2.5,0.3,5.8%,0.5,-39.6,
CCCCn1c(N)c(N(CCOC)C(=O)c2ccc3c(c2)C(=O)N(c2ccccc2C)C3=O)c(=O)[nH]c1=O,5.7,.,.,-11.6,.,
CCCCCCn1c(CN2CCN(C)CC2)nc2c1c(=O)n(C)c(=O)n2C,-16.3,-18.5,2.8%,-5.3,-4.7,
COc1cc(C(=O)O/N=C2\CCCc3c2ccc(OC)c3[N+](=O)[O-])cc(OC)c1OC,-0.3,3.1,.,4.9,-35.6,
COc1ccc(-n2c(-c3ccc(Cl)cc3)c[nH]c2=S)cc1,3.2,.,.,1.9,.,

# Screening results as filed in PubChem BioAssay.
